UUG fidelity – modulators of start codon recognition fidelity in yeast | S. cerevisiae UUG-firefly luciferase reporter, luminescence/redox ratio | activity score, % at 18.7 µM | 350,000 compounds, 0.13% hits;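 active = replicate mean at a twofold rise or more, about +100% in these data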;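 note: firefly luciferase made from a UUG start codon reports start codon fidelity; reporter light over untreated wells divided by growth signal over untreated wells; some hits fall short of that in this replicate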
* = called active by the depositor. Not all compounds are listed; rates above refer to the full screens.

UUG fidelity	structure
-2.2	CO[C@@H]1CN(C)C(=O)c2cc(NS(C)(=O)=O)ccc2OC[C@@H](C)N(C(=O)C2CCCC2)C[C@@H]1C
4.8	CC(=O)N1[C@H](CN(CC2CCC2)C(=O)CN(C)C)[C@@H](c2ccccc2)[C@@H]1CO
-1.0	COCCNC(=O)C[C@@H]1CC[C@H]2[C@@H](COc3ccc(NC(=O)Nc4cccc(F)c4)cc3C(=O)N2C)O1
-12.1	CCCNC(=O)N1C[C@@H](O)COC[C@H]2O[C@@H](CC(=O)N3CCOCC3)CC[C@@H]21
-24.5	O=C(C[C@H]1CC[C@@H]2[C@H](COC[C@@H](O)CN2Cc2cccc(F)c2)O1)NCCc1ccncc1
7.4	Cc1ccccc1S(=O)(=O)N1CC[C@H]2[C@H](CO)Nc3ccc(-c4cccc(C#N)c4)cc3[C@H]21
13.7	CO[C@@H]1CN(C)C(=O)c2ccc(NC(=O)C3CCCCC3)cc2OC[C@H](C)N(C)C[C@H]1C
6.6	C[C@H](CO)N1C[C@H](C)[C@H](CN(C)S(=O)(=O)c2ccc(Cl)cc2)Oc2ccc(NC(=O)C3CC3)cc2C1=O
9.2	CO[C@@H]1CN(C)C(=O)c2cc(NC(=O)C3CC3)ccc2OC[C@@H](C)N(C(=O)Nc2ccc(C(F)(F)F)cc2)C[C@H]1C
-7.9	Cc1noc(C)c1NC(=O)Nc1ccc2c(c1)CC(=O)N([C@H](C)CO)C[C@@H](C)[C@H](CN(C)Cc1ccncc1)O2
2.7	CN(C)C(=O)c1ccc(-c2ccc3c(c2)[C@H]2[C@H](CCN2C(=O)c2ccc4c(c2)OCO4)[C@@H](CO)N3)cc1
-6.4	CCCNC(=O)N1C[C@H](C)[C@H](OC)CN(C)C(=O)c2cc(NS(=O)(=O)CC(F)(F)F)ccc2OC[C@H]1C
-4.5	CC(C)NC(=O)N(C)C[C@H]1Oc2c(NS(=O)(=O)c3ccc(F)cc3)cccc2C(=O)N([C@@H](C)CO)C[C@@H]1C
6.4	C[C@@H]1CN([C@@H](C)CO)C(=O)Cc2cc(NS(=O)(=O)c3ccccc3)ccc2O[C@@H]1CN(C)C
-3.4	CCNC(=O)C[C@@H]1CC[C@H]2[C@@H](COC[C@H](O)CN2Cc2ccccc2F)O1
-11.8	C[C@@H]1CN([C@@H](C)CO)C(=O)c2cc(NC(=O)c3ccncc3)ccc2O[C@H]1CN(C)S(=O)(=O)c1cccs1
14.8	C[C@H](CO)N1C[C@H](C)[C@H](CN(C)Cc2ccc(C(=O)Nc3ccccc3N)cc2)Oc2ccc(NC(=O)CCC(F)(F)F)cc2C1=O
-1.7	C[C@H]1CN([C@@H](C)CO)C(=O)c2cc(NC(=O)NC3CCCCC3)ccc2O[C@@H]1CN(C)CC1CCCCC1
-2.8	CC(C)NC(=O)Nc1cccc2c1O[C@@H](CN(C)CC1CC1)[C@H](C)CN([C@@H](C)CO)C2=O
11.5	C[C@H](CO)N1C[C@H](C)[C@H](CN(C)C(=O)Nc2cccc3ccccc23)Oc2ccc(NS(=O)(=O)c3cn(C)cn3)cc2C1=O
-10.1	CCCN(C)C[C@H]1OCc2cnnn2CCCC(=O)N([C@@H](C)CO)C[C@H]1C
-12.6	CC(C)NC(=O)Nc1ccc2c(c1)C(=O)N([C@@H](C)CO)C[C@H](C)[C@H](CN(C)Cc1ccc3c(c1)OCO3)O2
6.4	C[C@@H]1CN([C@H](C)CO)C(=O)c2cc(NC(=O)Cn3cnnn3)ccc2O[C@H]1CN(C)C
33.2	CCCNC(=O)N1C[C@H]2[C@@H](c3ccccc31)[C@@H](CO)N2C(=O)Cc1ccccn1
-14.3	C[C@H](CO)N1C[C@H](C)[C@H](CN(C)Cc2ccncc2)Oc2ccc(NC(=O)Nc3ccc(F)cc3)cc2CC1=O
1.3	CCCN1C[C@H](C)[C@H](OC)CN(C)C(=O)c2cc(NS(=O)(=O)CC)ccc2OC[C@@H]1C
0.4	C[C@@H]1CN([C@H](C)CO)C(=O)c2cccc(NC(=O)c3ccc(-c4nccs4)cc3)c2O[C@@H]1CN(C)C(=O)Nc1ccc2c(c1)OCO2
18.1	O=C(C[C@@H]1CC[C@H]2[C@@H](COC[C@H](O)CN2Cc2ccccc2)O1)N[C@H]1CCN(Cc2ccccc2)C1
-3.6	CN1c2ccc(C3=CCCCC3)cc2[C@H]2[C@H](CCN2S(=O)(=O)c2ccccc2F)[C@@H]1CO
-2.4	C[C@@H]1CN([C@@H](C)CO)C(=O)c2cc(NC(=O)CCCN(C)C)ccc2O[C@H]1CN(C)C
11.5	CNC[C@H]1Oc2ccc(NS(=O)(=O)c3ccc(F)cc3)cc2CC(=O)N([C@@H](C)CO)C[C@@H]1C
-11.3	O=C(c1ccccc1)N1CC[C@@H]2[C@@H](CO)Nc3ccc(C#Cc4cccnc4)cc3[C@@H]21
-1.1	CO[C@@H]1CN(C)C(=O)c2ccc(NC(=O)NC(C)C)cc2OC[C@H](C)N(Cc2ccc(-c3ccccn3)cc2)C[C@H]1C
3.5	CC(=O)N1[C@@H](CO)[C@@H](c2ccc(-c3ccc(F)cc3)cc2)[C@@H]1CNC(=O)C1CC1
-14.5	COc1cccc(C#Cc2ccc3c(c2)[C@H]2[C@H](CCN2S(=O)(=O)c2ccccc2)[C@H](CO)N3)c1
-6.2	C[C@@H]1CN([C@H](C)CO)C(=O)c2cc(NS(=O)(=O)c3cccs3)ccc2O[C@H]1CN(C)Cc1ccc2c(c1)OCO2
4.0	C[C@H]1CN([C@@H](C)CO)C(=O)c2cccc(NS(=O)(=O)c3ccc(F)cc3)c2O[C@@H]1CN(C)CC1CCCCC1
-19.4	COc1ccc(-c2ccc3c(c2)[C@H]2[C@H](CCN2S(=O)(=O)c2ccccc2C)[C@H](CO)N3)cc1
-6.1	CC(=O)NC[C@@H]1[C@H](c2ccc(-c3ccccc3F)cc2)[C@H](CO)N1C(C)=O
9.3	COCC#Cc1ccc([C@H]2[C@@H](CO)N3CCCCN(C(=O)NC4CCCC4)C[C@@H]23)cc1
4.5	CCCC(=O)Nc1ccc2c(c1)OC[C@@H](C)N(C(=O)c1ccccn1)C[C@@H](C)[C@@H](OC)CN(C)C2=O
-0.1	CCN(C[C@@H]1[C@@H](c2ccccc2)[C@H](CO)N1CC1CC1)C(C)=O
1.4	COc1ccc(C(=O)N2C[C@@H]3[C@H](c4ccccc42)[C@@H](CO)N3C(=O)Cc2ccccn2)cc1
-1.3	O=C(NC[C@@H]1N[C@@H](CO)[C@H]1c1ccc(C2=CCCCC2)cc1)c1ccc(F)cc1
-9.0	CO[C@H]1CN(C)C(=O)c2cc(NS(C)(=O)=O)ccc2OC[C@H](C)N(CC2CC2)C[C@@H]1C
8.7	C[C@H](CO)N1C[C@H](C)[C@H](CN(C)S(=O)(=O)c2ccccc2)Oc2c(NC(=O)C3CCOCC3)cccc2C1=O
3.9	CO[C@H]1CN(C)C(=O)c2ccc(NC(C)=O)cc2OC[C@@H](C)N(C(=O)C2CCCCC2)C[C@H]1C
34.3	Cc1ccc(S(=O)(=O)N(C)C[C@H]2Oc3ccc(NC(=O)NC(C)C)cc3CC(=O)N([C@H](C)CO)C[C@@H]2C)cc1
-1.7	C[C@H]1CN([C@@H](C)CO)C(=O)Cc2cc(NC(=O)c3ccncc3)ccc2O[C@H]1CN(C)Cc1ccc(C(=O)O)cc1
-2.0	CO[C@@H]1CN(C)C(=O)c2ccc(NC(=O)C3CCC3)cc2OC[C@H](C)N(Cc2ccc(F)cc2)C[C@@H]1C

Three entries picked at random from those above, as already listed:
UUG fidelity	structure
-9.0	CO[C@H]1CN(C)C(=O)c2cc(NS(C)(=O)=O)ccc2OC[C@H](C)N(CC2CC2)C[C@@H]1C
-0.1	CCN(C[C@@H]1[C@@H](c2ccccc2)[C@H](CO)N1CC1CC1)C(C)=O
-1.7	C[C@H]1CN([C@@H](C)CO)C(=O)Cc2cc(NC(=O)c3ccncc3)ccc2O[C@H]1CN(C)Cc1ccc(C(=O)O)cc1

Additional results follow:
UUG fidelity	structure
11.3	CN(C)CC#Cc1ccc([C@H]2[C@@H](CO)N3CCCCN(CC4CC4)C[C@H]23)cc1
-20.5	COc1ccccc1-c1ccc([C@@H]2[C@@H](CO)N3CCCCN(Cc4ccncc4)C[C@@H]23)cc1
16.1	COCC(=O)Nc1ccc2c(c1)C(=O)N(C)[C@H]1CC[C@H](CC(=O)NCCCN(C)C)O[C@H]1CO2
14.7	COc1ccc(CN(C)C[C@@H]2Oc3ccc(NS(=O)(=O)c4cn(C)cn4)cc3CC(=O)N([C@H](C)CO)C[C@@H]2C)cc1
12.8	COc1ccc(C(=O)Nc2ccc3c(c2)OC[C@H](C)N(C(C)=O)C[C@@H](C)[C@@H](OC)CN(C)C3=O)cc1
1.5	CC(C)NC(=O)NC[C@@H]1[C@H](c2ccccc2)[C@H](CO)N1C(=O)c1ccccc1
3.9	O=C(Nc1ccc(F)cc1)N1C[C@H]2[C@@H](c3ccccc31)[C@@H](CO)N2C(=O)c1ccccc1F
2.6	O=S(=O)(c1ccccc1)N1C[C@H]2[C@@H](c3ccccc31)[C@H](CO)N2Cc1ccccc1
-0.5	CCCNC(=O)Nc1ccc2c(c1)OC[C@@H](C)N(Cc1ccccc1)C[C@@H](C)[C@@H](OC)CN(C)C2=O
8.5	CN(C)C(=O)C[C@H]1C[C@@H]2c3cc(NC(=O)c4ccc5c(c4)OCO5)ccc3O[C@@H]2[C@@H](CO)O1
10.9	COC(=O)C[C@H]1CC[C@H]2[C@H](COc3ccc(NC(=O)Nc4cccc(C#N)c4)cc3C(=O)N2C)O1
-14.7	COc1ccc(CN(C)C[C@H]2Oc3c(NC(=O)Nc4c(C)noc4C)cccc3C(=O)N([C@H](C)CO)C[C@@H]2C)cc1
-0.1	COc1ccc(C#Cc2ccc3c(c2)[C@@H]2[C@@H](CCN2S(=O)(=O)C2=NC(C)C=N2)[C@H](CO)N3C)cc1 (stereo partly specified)
-16.6	C[C@H](CO)N1C[C@H](C)[C@@H](CN(C)S(=O)(=O)c2ccc(Cl)cc2)Oc2c(NC(=O)Nc3ccc(C(F)(F)F)cc3)cccc2C1=O
5.4	CO[C@@H]1CN(C)C(=O)c2ccc(NS(=O)(=O)c3cn(C)cn3)cc2OC[C@H](C)N(Cc2cccc(F)c2)C[C@H]1C
31.3	CO[C@H]1CN(C)C(=O)c2cc(NC(=O)Nc3cc(F)ccc3F)ccc2OC[C@H](C)N(C)C[C@H]1C
17.8	CC(C)NC(=O)N1CCCCN2[C@H](C1)[C@H](c1ccc(Br)cc1)[C@@H]2CO
1.1	COc1cccc(S(=O)(=O)Nc2ccc3c(c2)C(=O)N(C)[C@@H]2CC[C@H](CC(=O)NCC4CCCCC4)O[C@@H]2CO3)c1
5.6	CCC(=O)N1[C@@H](CO)[C@@H]2c3ccccc3N(C(=O)c3ccc4c(c3)OCO4)C[C@@H]21
-10.0	O=C(C[C@H]1CC[C@@H]2NC[C@H](O)COC[C@H]2O1)Nc1ccccc1
-9.3	C[C@H](CO)N1C[C@H](C)[C@@H](CN(C)C(=O)Nc2ccc3c(c2)OCO3)Oc2c(NC(=O)CCCCCC(=O)Nc3ccccc3N)cccc2C1=O
-4.9	C[C@@H]1CN([C@H](C)CO)C(=O)CCCn2cc(nn2)CO[C@@H]1CN(C)Cc1ccc2c(c1)OCCN2C
-0.3	CO[C@H]1CN(C)C(=O)c2cc(NC(C)=O)ccc2OC[C@H](C)N(CCc2ccccc2)C[C@H]1C
-11.2	CCC(=O)Nc1ccc2c(c1)C(=O)N(C)C[C@@H](OC)[C@@H](C)CN(CC1CC1)[C@H](C)CO2
-3.6	C[C@H](CO)N1C[C@H](C)[C@H](CN(C)C(=O)Nc2ccc3c(c2)OCO3)Oc2c(NC(=O)C3CCCCC3)cccc2C1=O
1.2	C[C@H](CO)N1C[C@H](C)[C@@H](CN(C)S(=O)(=O)c2ccccc2)Oc2c(NC(=O)C3CCOCC3)cccc2C1=O
5.1	CCC(=O)N1[C@H](CNC(C)=O)[C@@H](c2ccc(-c3ccc(F)cc3)cc2)[C@@H]1CO
2.1	CCS(=O)(=O)Nc1ccc2c(c1)C(=O)N(C)[C@@H]1CC[C@@H](CC(=O)NCc3ccc(OC)cc3)O[C@@H]1CO2
14.9	C[C@@H]1CN([C@@H](C)CO)C(=O)c2ccccc2-c2ccccc2CO[C@H]1CN(C)S(=O)(=O)c1ccccc1
9.8	Cc1ccccc1-c1ccc([C@H]2[C@H](CO)N3CCCCN(C(=O)Nc4ccc(F)cc4)C[C@@H]23)cc1

Structural class, the compounds so far with a thiophene ring, fused or not.
UUG fidelity	structure
-11.8	C[C@@H]1CN([C@@H](C)CO)C(=O)c2cc(NC(=O)c3ccncc3)ccc2O[C@H]1CN(C)S(=O)(=O)c1cccs1
-6.2	C[C@@H]1CN([C@H](C)CO)C(=O)c2cc(NS(=O)(=O)c3cccs3)ccc2O[C@H]1CN(C)Cc1ccc2c(c1)OCO2

Structural class: the entries above with a cyano group
UUG fidelity	structure
7.4	Cc1ccccc1S(=O)(=O)N1CC[C@H]2[C@H](CO)Nc3ccc(-c4cccc(C#N)c4)cc3[C@H]21
10.9	COC(=O)C[C@H]1CC[C@H]2[C@H](COc3ccc(NC(=O)Nc4cccc(C#N)c4)cc3C(=O)N2C)O1

(more compounds)
UUG fidelity	structure
-2.5	CC(C)NC(=O)N(C)C[C@H]1Oc2ccc(NC(=O)CCCN(C)C)cc2C(=O)N([C@H](C)CO)C[C@@H]1C
-7.6	N#Cc1ccc(-c2ccc3c(c2)[C@@H]2[C@@H](CCN2Cc2cncnc2)[C@@H](CO)N3)cc1
-2.7	C[C@@H]1CN([C@H](C)CO)C(=O)c2ccccc2-c2ccccc2CO[C@H]1CN(C)S(=O)(=O)c1ccc(F)cc1
9.2	CC(C)NC(=O)N(C)C[C@@H]1Oc2ccc(NC(=O)Cc3cn(C)c4ccccc34)cc2C(=O)N([C@H](C)CO)C[C@H]1C
10.0	CO[C@@H]1CN(C)C(=O)c2cc(NC(=O)Nc3ccccc3F)ccc2OC[C@@H](C)N(CC2CC2)C[C@@H]1C
19.9	C[C@@H]1CN([C@@H](C)CO)C(=O)c2cc(NC(=O)Nc3ccc(C(F)(F)F)cc3)ccc2O[C@H]1CN(C)S(C)(=O)=O

Screens: PubChem BioAssay, Broad Institute
